# gsp agonist: gsp mutant agonism. Potency, µM (series often up to 76.9 µM), without a hit: at the top dose activation (cAMP increase), hits mostly activators. 340,000 compounds, 0.13% hits. gsp mutant cells, cAMP HTRF, 30 min; control for the full effect not named in the record; active = well fitted activation curve with a large enough effect; inconclusive = small, poorly fitted or top-dose-only effect, or another doubt; inactive = no such curve, though single readings can be large or run the other way; cell line not stated here;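 further: phosphodiesterase inhibitor Ro 20-1724 added with compounds to block cAMP breakdown; potency means the concentration at half of the fitted maximal effect; nearly all actives have a fitted effect of over 60% in size; about a fifth of the inactives were tested at one dose only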
#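 Cells in DMEM/10% FBS with G418 were pretreated with compounds in DMSO plus […] (300 uM stock) for 30 min at 37C. cAMP was measured by HTRF (cAMP-d2 plus anti-cAMP antibody-K) after 30 min at room temperature.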
# ClpP mod: qHTS Assay for Activators of ClpP; ATP-dependent Clp protease proteolytic subunit (Bacillus subtilis (strain 168)), P80244; purified B. subtilis ClpP, FRET peptide cleavage, 20 min; Potency, µM (highest dose often 57.5 µM), inactives show top-dose activity change, negative = active; 340,000 compounds, 1.9% hits; active = well fitted falling curve with a large enough effect; inconclusive = small, poorly fitted or top-dose-only effect; inactive = no such curve, though single readings can be large or run the other way; further: potency means the concentration at half of the fitted maximal effect; the source files actives as falling curves though it sought activators and does not explain the sign; nearly all actives have a fitted effect of over 65% in size; many hits overshoot -100%
# Target sequence (P80244 whole entry, looked up): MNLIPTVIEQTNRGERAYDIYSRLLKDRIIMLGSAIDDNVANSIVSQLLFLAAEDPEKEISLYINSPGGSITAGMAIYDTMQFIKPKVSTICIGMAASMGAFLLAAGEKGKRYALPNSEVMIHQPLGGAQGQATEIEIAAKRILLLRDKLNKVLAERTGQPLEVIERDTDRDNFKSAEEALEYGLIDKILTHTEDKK
#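 FRET quenching reversal measured ClpP activation: 10 microg/mL B. subtilis ClpP at pH 8 with the FRET-FV decapeptide, read at 430 nm after 320 nm excitation. The 20-min minus 0-min signal was scaled between DMSO/no-enzyme wells and ADEP (5.8 microM final).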
# TRPML1 inh: human mucolipin-1 channel inhibition; TRPML1-inducible cells, Ca2+ dye fluorescence, FDSS; hits give low values; inhibition of EC80 agonist-evoked calcium signal; activity change, negative = inhibition, % (test concentration not listed); 390,000 compounds, 0.02% hits; Q9GZU1; in the data active means activity change below about -50%; inconclusive means about -30% to -50%; inactive means above about -30%;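 further: stimulus is agonist 54-4 at its EC80 concentration; on the % scale 0 is the no-effect control and ±100 the full control effect; compound concentration not given in the record; the text of the record puts the active cut at -80%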
# Target sequence (Q9GZU1 whole entry, looked up): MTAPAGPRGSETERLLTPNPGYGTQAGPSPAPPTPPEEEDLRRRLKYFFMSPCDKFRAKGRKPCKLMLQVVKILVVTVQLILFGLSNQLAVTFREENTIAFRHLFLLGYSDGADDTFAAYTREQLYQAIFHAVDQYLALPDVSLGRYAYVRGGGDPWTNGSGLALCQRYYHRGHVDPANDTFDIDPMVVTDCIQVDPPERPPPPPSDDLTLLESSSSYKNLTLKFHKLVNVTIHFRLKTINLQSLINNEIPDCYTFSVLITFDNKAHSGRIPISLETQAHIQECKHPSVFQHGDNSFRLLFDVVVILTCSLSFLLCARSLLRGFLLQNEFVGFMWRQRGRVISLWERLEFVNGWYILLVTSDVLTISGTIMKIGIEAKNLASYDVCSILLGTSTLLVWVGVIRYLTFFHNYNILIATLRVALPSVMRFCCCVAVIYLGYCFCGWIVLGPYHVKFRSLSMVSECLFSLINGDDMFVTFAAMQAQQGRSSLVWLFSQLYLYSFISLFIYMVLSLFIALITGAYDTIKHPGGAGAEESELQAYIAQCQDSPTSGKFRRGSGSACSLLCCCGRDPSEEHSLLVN
#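 Tet-induced TRPML1-DL cells loaded with Ca8 no-wash calcium dye were read kinetically on FDSS. Compound addition was followed by EC80 agonist 54-4 (4 uM final); inhibition was read over 110 s.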
# TRPML1 agonist: human mucolipin-1 channel agonism; TRPML1-expressing cells, Ca2+ dye fluorescence, FDSS; host cell line not named in the record; reference of the full effect not given here; activation, % (no concentration beside the values); 410,000 compounds, 0.12% hits; in the data active = activation above about 50%; inconclusive = about 30% to 50%; inactive = below about 30%; further: 0% is about no effect; the text of the record puts the active cut at 80%
#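 Calcium fluorescence on an FDSS kinetic reader gave the read-out. Tet-induced TRPML1-DL cells were plated overnight, dye-loaded (Ca8 with quencher, 45-90 min, room temperature, dark), then read 110 s after compound addition, and again 110 s after 4uM final 54-4 (EC80).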
# Menin-MLL FL inh: displaces fluorescein MLL peptide from human menin. Fluorescence polarization, fluorescein-MLL peptide displacement from menin. FP activity change, % at 61.4 µM. 290,000 tested, under 10 active; inconclusive = falling polarisation curve, or a change in total fluorescence; inactive = total fluorescence flat and polarisation flat or rising; no compound was filed as active; the % refers to the polarisation; negative = inhibition;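 further: % of control where 0% means no effect; inhibitors lower the polarisation; unlabelled MLL peptide was the positive control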
# gsp antag: gsp mutant antagonism; gsp-mutant cells, cAMP HTRF, 30 min; control for the full effect not named in the record; AID 624288; Potency, µM (highest dose often 76.9 µM), inactives show at the highest dose activity change, negative = inhibition, most hits filed as inhibitors; 340,000 compounds, 0.4% hits; active = falling curve of any shape with a large fitted effect; inconclusive = falling curve, mostly with a smaller effect; inactive = flat or rising curve; cell line not stated here;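 further: intracellular cAMP measured with PDE inhibitor Ro 20-1724 present during compound exposure; potency means the concentration at half of the fitted maximal effect; on the % scale 0 is the no-effect control and ±100 the full control effect; nearly all actives have a fitted effect of over 65% in size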
#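 Cells in G418 medium, seeded 16-24 h, 37C; buffer exchange to DPBS + 1 mM CaCl2, 0.5 mM MgCl2, 0.05% BSA; cpds in DMSO + […] (300 uM stock), 30 min 37C; HTRF cAMP detection.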
# * = called active by the depositor; ? = inconclusive; . = not tested or not shown; [ ] = remark or other dose.
SMILES,gsp agonist,ClpP mod,TRPML1 inh,TRPML1 agonist,Menin-MLL FL inh,gsp antag
CCC(C)NC(=O)c1ccc(CSCc2cccc(F)c2)o1 (stereo unspecified),22%,-1.3%,-1,-0.4,2.0,0%
COc1cc(OC)cc(-c2c(C#Cc3ccsc3)c3cc(-c4cnc(OC)nc4)ccc3n2C)c1,0%,4.6%,-2,-0.7,.,8%
O=C1CSC(=S)N1c1cccc(Cl)c1,1%,-2.0%,.,.,12,1%
O=c1[nH]c2cc3c(cc2cc1C(c1nnnn1Cc1ccccc1)N1CCCc2ccccc21)OCO3 (stereo unspecified),-46%[inhibitor],-10%,1,0.3,2.6,-4%
Cc1cccc(N2C(=O)C(O)=C(C(=O)c3cccs3)C2c2ccc(Cl)cc2)n1 (stereo unspecified),23%[15.4 µM],1.0%,17,1.4,3.9,-12%
Cc1ccc(S(=O)(=O)NC2=NCN(C3CCN(Cc4ccccc4)CC3)CN2)cc1,-15%,-1.0%,7,-0.6,-1.1,16%
CC(=O)c1cc2c(cc1NC(=O)CN1Cc3ccccc3C1=O)OCO2,9%,-4.1%,-6,-0.4,2.9,-3%
Cc1ccc(C(=O)NC2CCN(Cc3ccccc3)CC2)cc1S(=O)(=O)N1CCOCC1,-12%,-1.1%,-1,0.0,.,6%
COc1cccc(CN(C)C(=O)CCNC(=O)c2ccco2)c1,-23%,-0.4%,5,-0.5,.,13%
CCOC(=O)c1c(C)[nH]c(C(=O)COC(=O)c2ccc(O)cc2)c1C,-1%[15.4 µM],.,-17,1.7,5.7,0%
CCCCN=C(C)c1c(O)c2ccccc2oc1=O,7%,-25%,3,-0.5,3.5,-9%
CCO[C@@H]1OC(C(=O)NCc2ccccc2)=C[C@H](c2coc3ccccc3c2=O)[C@H]1CCCO,22%,1.5%,-10,0.2,-1.6,9%
CC(CC(=O)Nc1ncc([N+](=O)[O-])s1)c1ccccc1 (stereo unspecified),9%[15.4 µM],.,-11,0.1,-1.4,-9%
Cc1ccc(C)c(NC(=O)N2CCN3CCCCC3C2)c1 (stereo unspecified),.,1.9%,-19,2.5,.,.
CC(=O)c1ccc(NC(=O)CSc2c(C(C)C)cnc3c2c(=O)n(C)c(=O)n3C)cc1,.,-6.1%,-1,1.6,.,.
Cc1cc(Nc2nn(C)c(N)c2C#N)ccc1F,-8%,-1.2%,6,0.1,-3.8,7%
O=C(c1ccccc1)c1nc[nH]c1C(=O)Nc1ccccc1,2%,0.2%,0,3.0,2.4,10%
CCCC(C)C(=O)Nc1ncc(S(=O)(=O)c2ccc([N+](=O)[O-])cc2)s1 (stereo unspecified),-35%[inhibitor],0.4%,-3,28,1.2,-15%
O=C(Nc1cccc2nsnc12)C1CC(=O)N(c2ccccc2)C1 (stereo unspecified),6%,-1.0%,-9,0.4,3.2,0%
COCCCNC(=O)CN1C(=O)/C(=C/c2ccccc2)Sc2ccccc21,?,0.7%,-1,-0.8,1.2,-5%
CCCOc1ccc2nc(C)c(CCC)c(SC(=N)N)c2c1,10%,-3.6%,-2,1.9,-0.9,-2%
C=CCn1c(SCc2nc3ccccc3[nH]2)nnc1-c1ccncc1,4%,-10%,9,0.9,9.2,8%
COc1cc(NS(=O)(=O)c2ccc(NC(=O)COc3cccc(C)c3)cc2)nc(OC)n1,2%[15.4 µM],.,3,0.1,-0.4,?
NS(=O)(=O)c1ccc(CCNC(=O)CCCn2ncn3c(cc4occc43)c2=O)cc1,17%,0.0%,4,-1.1,-1.5,0%
Cc1onc(-c2ccccc2)c1C(=O)N1CCN(c2ncccc2C(F)(F)F)CC1,1%[15.4 µM],-0.8%,14,-0.6,.,-9%
O=C(Cn1nc(C(F)F)cc1C1CC1)N1CCCC1,2%,.,12,0.6,.,16%
CC(C)Cc1ccc(C(C)C(=O)Nc2ncccn2)cc1 (stereo unspecified),5%[15.4 µM],.,4,1.4,-1.7,-11%
O=C(NC1CCN(c2ncccn2)CC1)c1cccc(F)c1,-1%,-26%,-1,1.4,-0.3,1%
CC(=O)Oc1ccc2ccccc2c1C(NC(=O)Cc1ccccc1)c1ccc(Cl)cc1 (stereo unspecified),3%,-0.3%,2,0.3,2.6,-20%
CCOC(=O)C1CCN(S(=O)(=O)c2ccc(-c3ccc(=O)[nH]n3)o2)CC1,?,-19%,0,-0.4,-6.8,-2%
CC1(C)CC(NC(=O)C(c2ccccc2)c2ccccc2)CC(C)(C)N1,-25%,-0.5%,-2,0.2,-1.1,11%
COc1cccc2cc(-c3cc(=O)oc4ccc(O)cc34)oc12,-9%,0.3%,41,1.0,-9.6,-11%
CCOC(=O)N1CCN(C(=O)c2cc3sccc3n2C)CC1,?,-0.6%,-2,1.6,-4.6,-25%
COc1ccc(C(=O)Nc2cccnc2Cl)cc1OC,-8%,-1.8%,11,0.7,-0.6,7%
Cc1c(NC(=O)CCc2ccccc2)cccc1[N+](=O)[O-],6%[15.4 µM],.,-2,-0.4,4.4,7%
COC(=O)CC(=O)Cc1nc(N)nc(Nc2ccc(C)c(C)c2)n1,27%,0.0%,-8,-0.2,5.6,6%
CC1=C(C(=O)NC2CCCc3c2cnn3-c2cccc(C)c2C)OCCO1 (stereo unspecified),-9%,-1.0%,16,0.2,.,-9%
COc1ccc(C(CNC(=O)c2cccc(S(=O)(=O)N3CCCc4ccccc43)c2)N(C)C)cc1 (stereo unspecified),-2%,-3.7%,31,2.2,.,0%
Clc1ccccc1-c1nnc2sc(-c3ccco3)nn12,?,-0.4%,20,1.7,2.2,14%
CCOc1ncccc1C(=O)OCC(=O)N1c2ccccc2CC1C (stereo unspecified),-50%[inhibitor],-1.0%,19,1.2,.,-1%
O=C(c1cc2ccccn2n1)N1CCN(c2cccc(C(F)(F)F)c2)CC1,6%,-3.5%,-15,0.0,2.2,5%
CCOC(=O)C1(Cc2cccc(OC)c2)CCN(Cc2cccc(OCC)c2O)CC1,4%,.,21,1.1,-3.8,-17%
CCCCn1c(-c2ccccc2)nnc1-c1ccccc1,-1%,1.8%,2,0.5,3.4,1%
CCC(C)(C)n1nnnc1C(c1cc2cc3c(cc2[nH]c1=O)OCO3)N1CCN(C)CC1 (stereo unspecified),16%,8.9µM*,-1,-0.7,6.4,14%
COc1ccc(OC)c(-c2noc(N3CCN(c4cccc(C(F)(F)F)c4)CC3)n2)c1,.,?,36,0.6,.,.
COc1ccc(S(=O)(=O)N2CCOCC2)cc1NC(=O)COc1ccccc1,23%[15.4 µM],.,4,1.3,.,-3%
CCCCCCCCCCCCN1[C@@H](CC(=O)O)c2cc(F)ccc2S1(=O)=O,.,1.7%,17,-0.6,.,-15%
CCCS(=O)(=O)NCCc1csc(-c2ccc(OC)c(OC)c2)n1,5%,4.7%,14,-0.1,0.7,0%
O=c1c2oc3ccccc3c2ncn1Cc1ccc(Br)cc1,.,-7.8%,1,-0.1,.,.
Cc1ccc2cc(C#N)c(NCCNC(=O)C3CCC3)nc2c1C,12%,16µM*,-11,1.6,4.0,6%

# Compounds listed so far with an aryl thioether with sulfur outside any ring, in the order listed:
SMILES,gsp agonist,ClpP mod,TRPML1 inh,TRPML1 agonist,Menin-MLL FL inh,gsp antag
CC(=O)c1ccc(NC(=O)CSc2c(C(C)C)cnc3c2c(=O)n(C)c(=O)n3C)cc1,.,-6.1%,-1,1.6,.,.
C=CCn1c(SCc2nc3ccccc3[nH]2)nnc1-c1ccncc1,4%,-10%,9,0.9,9.2,8%

# More results
SMILES,gsp agonist,ClpP mod,TRPML1 inh,TRPML1 agonist,Menin-MLL FL inh,gsp antag
COc1ccccc1CN1CC(C(=O)N(C)CCc2ccccn2)CCC1=O (stereo unspecified),27%,0.3%,29,0.0,.,.
COCc1cc(CN2CCN(CCCc3ccccc3)C(CCO)C2)ccc1OC (stereo unspecified),-72%[inhibitor],.,3,0.3,0.8,8%
CC(=NNC(=O)CSCC(=O)NN=C(C)c1ccccc1)c1ccccc1,-65%[inhibitor],.,-6,1.8,.,-2%
CSc1nc2ccc(Br)cc2[nH]1,8%[15.4 µM],.,6,-1.1,-1.6,-35%
Cc1ccc2c(c1)sc[n+]2Cc1ccccc1,-26%,-5.4%,7,-0.3,3.9,10%
COC(=O)c1c(C(=O)OC)c2n(c1C)CCS2,7%[15.4 µM],-0.2%,1,-0.1,3.3,14%
Oc1ccc(/C=N/N2CCCCC2)c(O)c1,13%[15.4 µM],-1.0%,1,-0.8,-0.6,6%
Cc1nn2c(NCCOCCO)c3c(nc2c1-c1ccccc1)CCC3,-3%[15.4 µM],-1.6%,-7,-0.5,4.9,-14%
COC(=O)c1ccc(/C=C/C(=O)OCC(=O)c2ccc[nH]2)cc1,?,.,10,1.0,.,-5%
O=C1Nc2ccccc2/C1=C/c1ccccc1Cl,-5%[15.4 µM],?,5,-1.6,0.2,13%
COC(=O)C(CCSC)NC(=O)/C=C/c1ccc(OC)cc1 (stereo unspecified),-32%[inhibitor],-2.5%,0,0.6,1.8,-6%
CCOc1ccc(N2CC(C(=O)Nc3ccccc3C(=O)N3CCOCC3)CC2=O)cc1 (stereo unspecified),41%[15.4 µM],.,-7,-0.2,0.1,4%
Cc1cccc(Cc2c(C)nc3nc(SCC(=O)NCc4ccccc4)nn3c2C)c1,.,-6.8%,13,3.5,.,.
CCCn1c(O)c(CN2CCCCC2)c(C)c(C#N)c1=O,0%,-20%,9,1.5,?,5%
Cn1c(=O)[nH]c(=O)c2c1ncn2CCCc1ccccc1,22%,-1.0%,1,-0.9,-2.9,5%
O=S(=O)(Nc1ccc(Cl)cc1NS(=O)(=O)c1ccccc1)c1ccccc1,23%,.,13,0.1,.,-31%
COc1ccc(CNc2ccc(S(N)(=O)=O)cc2)c(OC)c1OC,-58%[inhibitor],-2.5%,72,-0.1,3.9,0%
CCOc1ccc(-c2cc(N)n(S(=O)(=O)c3ccc(OC)c(OC)c3)n2)cc1,-47%[inhibitor],1.1%,21,0.8,1.8,-18%
Cc1nc(CCNC(=O)CC2C(=O)NCCN2Cc2ccccc2F)sc1C (stereo unspecified),2%[15.4 µM],.,-6,1.4,-10,6%
COc1ccccc1NS(=O)(=O)c1c(C)[nH]c(C)c1C(=O)N1CCCC1,?,1.7%,-3,0.1,-4.2,14%
COC(=O)C1=NN[C@H](C(=O)OC(C)(C)C)[C@H]1c1ccccc1,-17%,16µM*,-2,0.4,0.3,1%
COc1cccc(NC(=O)Cn2nnc(C(=O)Nc3cc(Cl)ccc3OC)c2N)c1,-108%[inhibitor],-22%,-5,-0.8,-2.2,10%
CCOC(=O)c1c(NC(=O)COC(=O)Cn2cnc3ccccc32)sc2c1CCC(C)C2 (stereo unspecified),22%,?,-10,2.6,6.5,-10%
CCCCCn1nc(C(=O)OCc2nnc(-c3ccccc3)o2)c2ccccc2c1=O,33%,-1.8%,-7,0.3,.,7%

# Source: PubChem
